Screening data (PubChem BioAssay)
GLA inh pH 4.5 – blocks human alpha-galactosidase A at pH 4.5; activity change, negative = inhibition, % at 105 µM; purified enzyme, 4-MU-alpha-Gal fluorescence, pH 4.5; AID 1467; 230,000 tested, under 10 active; inconclusive = small, poorly fitted or top-dose-only inhibition, or a rising curve; inactive = flat fitted curve, though single readings scatter; no compound was filed as active;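 further: 0% = full activity with enzyme and -100% = basal without enzyme; dose as in the result columns while the protocol names 77 µM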
Target sequence (P06280 whole entry, looked up): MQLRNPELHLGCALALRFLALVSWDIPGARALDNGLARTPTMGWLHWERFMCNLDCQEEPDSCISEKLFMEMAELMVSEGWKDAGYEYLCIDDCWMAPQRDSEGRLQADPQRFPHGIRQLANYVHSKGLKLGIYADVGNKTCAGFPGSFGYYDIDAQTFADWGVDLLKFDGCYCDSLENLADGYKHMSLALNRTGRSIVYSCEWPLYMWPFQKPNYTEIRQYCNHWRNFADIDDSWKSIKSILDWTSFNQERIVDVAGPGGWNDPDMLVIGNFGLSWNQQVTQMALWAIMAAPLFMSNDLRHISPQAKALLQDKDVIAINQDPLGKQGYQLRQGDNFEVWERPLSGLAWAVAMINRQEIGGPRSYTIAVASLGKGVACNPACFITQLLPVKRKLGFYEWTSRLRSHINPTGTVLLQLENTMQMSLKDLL
Rango dissoc inh – prevents RanGTP from dissociating the Rango-importin beta complex; Biochemical FRET Rango-importin beta, RanGTP-induced dissociation; O95149+P62826; hit rate 0.071% among 340,000; AID 540253; Potency, µM (titrated, usually from 46.1 µM), for the others: top-dose activity change, negative = inhibition; active means falling FRET ratio curve, often poorly fitted, with flat reads before Ran was added; inconclusive means other falling curves, or compound fluorescence or quenching; inactive means flat or rising ratio curve;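 further: potency means the concentration at half of the fitted maximal effect; % of control where 0% means no effect; nearly all actives have a fitted effect of over 45% in size; -100% = wells without RanGTP and RCC1; the record marks most hits as doubtful in a second field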
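Rango (0.1 uM)–importin beta (0.25 uM) complex; RanGTP-RCC1 trigger; 45 min RT; CFP/YFP FRET read.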
miR-21 reporter – raises the signal of a miR-21 reporter. HeLa miR-21 FLuc reporter, luciferase, 48 h. Potency, µM (doses to about 38.3 µM), for the others: at the top dose reporter change, positive = more light. 340,000 tested, under 10 active. AID 2288; active = well fitted rising curve with a large enough effect; inconclusive = small, poorly fitted or top-dose-only effect; inactive = no such curve, though single readings can be large or run the other way;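 further: % of control where 0% means no effect; miR-21 action dims this reporter so a rising signal means less miR-21 action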
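Using DMEM plus 10% FBS, HeLa miR-21-FLuc cells are incubated with test compounds (final up to about 40uM) for 48 hours; firefly luciferase signal is then imaged following reagent-mediated lysis.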
Rango complex inh – prevents formation of the Rango-importin beta complex | Q14974 | hit rate 0.031% among 340,000 | Potency, µM (doses to about 92.2 µM), for inactives: at the top dose inhibition of complex formation | Rango CFP/YFP FRET sensor + importin beta, 45 min; active = rising FRET ratio curve, often small or poorly fitted; inconclusive = mostly compound fluorescence or quenching in the first reads; inactive = flat curves in all reads;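 further: potency means the concentration at half of the fitted maximal effect; 0% = DMSO wells and 100% = buffer wells lacking importin beta; nearly all actives have a fitted effect of over 15% in size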
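FRET biosensor Rango (snurportin 1 IBB between N-terminal EYFP and C-terminal Cerulean), 50 nM in PBS/1 mM DTT/0.02% Tween-20/0.1% BSA, preincubated 5 min RT with compound; 0.125 microM importin beta added, 45 min RT, CFP/YFP FRET ratio read.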
An asterisk follows results filed as active; u = inconclusive; x = not tested or not shown; & = joins results of further samples. An excerpt; count on the stated rates, not on these rows.

SMILES	GLA inh pH 4.5	Rango dissoc inh	miR-21 reporter	Rango complex inh
O=C(Nc1ccccn1)c1ccc(Br)c(S(=O)(=O)N2CCCC2)c1	x	-7%	-21%	-2.0%
Cc1cccc(C(=O)c2cccc(C)c2)c1	x	18%	-9%	-3.9%
CCOC(=O)c1c(NC(=O)C(C)Sc2nnc(C)c(=O)[nH]2)sc2c1CCCC2 (stereo not given)	x	-8%	1%	1.6%
CCC(C)c1ccc(NC(=O)CSc2nncn2N)cc1 (stereo not given)	-2	-10%	-35%	1.4%
Oc1cccc(/C=N/Nc2ncnc3c2ncn3Cc2ccccc2)c1	-12	-5%	-54%	-0.2%
Cc1ccc(-c2cc(C(=O)O)n[nH]2)o1	1	0%	-3%	-4.5%
COc1cc(/C=N/NC(=O)c2ccc(N(C)S(=O)(=O)c3ccccc3)cc2)cc(OC)c1OC	-18	-20%	8%	-2.3%
CCCCCSc1nc2c(cnn2-c2ccc(F)cc2)c(=O)[nH]1	x	-20%	-2%	0.0%
CN1C(=O)c2ccccc2C(O)c2ccccc21 (stereo not given)	x	-11%	x	-1.3%
O=C(Nc1ncc2c(n1)CC(c1ccco1)CC2=O)c1ccccc1 (stereo not given)	3	3%	-14%	-2.6%

Record cards (already shown).
CCOC(=O)c1c(NC(=O)C(C)Sc2nnc(C)c(=O)[nH]2)sc2c1CCCC2 (stereo not given) is entered as GLA inh pH 4.5 = x; Rango dissoc inh = -8%; miR-21 reporter = 1%; Rango complex inh = 1.6%
O=C(Nc1ccccn1)c1ccc(Br)c(S(=O)(=O)N2CCCC2)c1 is entered as GLA inh pH 4.5 = x; Rango dissoc inh = -7%; miR-21 reporter = -21%; Rango complex inh = -2.0%

(more compounds)
SMILES	GLA inh pH 4.5	Rango dissoc inh	miR-21 reporter	Rango complex inh
Cc1cc(C)c(C(=O)/C=C/c2cccc3ccccc23)c(=O)[nH]1	-1	u	u	u
CCN1CCCC1CNC(=O)C(=O)Nc1ccc(OC)cc1 (stereo not given)	4	1%	-1%	-1.8%
CCC1Oc2ccccc2N(CC(=O)NCCN2C(C)CCCC2C)C1=O (stereo not given)	-8	-14%	1%	-3.4%
COCCNC(=S)N1CCc2cc(OC)c(OC)cc2C1COc1cc(C)cc(C)c1 (stereo not given)	1	-3%	-8%	-5.3%
COc1ccc(-n2c(CSc3nc(C)cc(C)n3)nnc2SCC(=O)Nc2nccs2)cc1	-2	-15%	-4%	0.8%
CN(c1ccccc1C(=O)Nc1cccc([N+](=O)[O-])c1)S(=O)(=O)c1ccccc1	x	18%	3%	1.2%
Cc1cc(=O)oc2cc(OS(C)(=O)=O)ccc12	-3&-3	-10%	-12%&-2%	0.7%
Cc1ccccc1C(=O)Nc1ccccc1C(=O)N1CCC(C)CC1	x	3%	0%	9.1%
COc1ccc(-c2nc(CS(=O)CC(=O)NC(C)CCc3ccccc3)c(C)o2)cc1OC (stereo not given)	x	-16%	-8%	-1.6%
Cc1nn(CC(=O)NCc2ccco2)c(C)c1[N+](=O)[O-]	-7	7%	2%	-2.6%
CC1=CC2=NC(=O)CC(C)(C(=O)N(CC(=O)NC3CCCC3)c3cc(C)cc(C)c3)N2C=C1 (stereo not given)	-1	-1%	-5%	-3.1%
COc1cc(OC)cc(-c2c(-c3cccs3)c3cc(-c4cnc(OC)nc4)ccc3n2C)c1	x	-2%	x	2.8%
CCCCCCCCCCOC(=O)Cn1c(COc2cccc(OC)c2)[n+](C)c2ccccc21	x	27%	28%	u
COc1ccc(NC(=O)c2ccc(F)cc2)cc1S(=O)(=O)Nc1cc(C)ccc1Br	-28	2%	28%	-0.2%
O=C(CCC(=O)c1cccs1)NCc1ccc(Cl)cc1	3	-16%	-2%	-5.6%
OC(CNCCc1ccc(C(F)(F)F)cc1)COC(c1ccccc1)c1ccccc1 (stereo not given)	x	0%	u	0.2%
CC(=O)C1=C(O)C(=O)N(c2ccc(O)cc2)C1c1ccc(C)cc1 (stereo not given)	x	15%	-6%	3.8%
Cc1nn(-c2ccccc2)c(C)c1/C=N/n1c(-c2ccncc2)n[nH]c1=S	3	36%	-18%	4.0%
CC(=O)N1CC(C)Sc2ccc(S(=O)(=O)NC3CCCCC3)cc21 (stereo not given)	x	0%	12%	-2.2%
Cc1ccc2c(c1)C(c1ccncc1)=NNC(c1ccc(C(C)C)cc1)=N2	3	x	-9%	x
COCCn1cc(C(=O)NCc2ccco2)c2c3ccccc3n(C)c2c1=O	10	4%	0%	0.2%
COc1cc(/C=N\N=C2/SC(CC(=O)O)C(=O)N2c2ccc(O)cc2)ccc1O (stereo not given)	0	-6%	0%	1.2%
COc1cccc(C2C(=O)c3ccccc3C2=O)c1	-6	0%	-18%	0.0%
CCN(C(=O)COC(=O)/C(C#N)=C/c1ccc(N(C)C)cc1)C1CCS(=O)(=O)C1 (stereo not given)	x	u	x	u
O=C(Nc1ccccc1N1CCOCC1)c1ccc(N2CCCC2=O)cc1	x	1%	x	4.7%
Cc1nnc(NC(=O)C2=COCCO2)s1	x	34%	x	-4.6%
NC(=O)COC(=O)c1ccccc1Nc1ccc(SC(F)F)cc1	-10	1%	-33%	-2.9%
CSc1ccc(CNC(=O)Cc2ccc(NC(=O)C3=C(C)OCCS3)cc2)cc1	x	-3%	-16%	-1.3%
O=C(CSc1cccs1)Nc1ccc(Cl)cc1	-6	4%	-52%	-2.2%
Cc1cc[n+](-c2nc3ccccc3nc2[N-]S(=O)(=O)c2ccccc2)cc1	-1	14%	-4%	1.3%
CC1CCCC(C)N1C(=O)c1cc(F)c(F)cc1Cl (stereo not given)	-1	-1%	0%	-0.8%
Cc1ccc(S(=O)(=O)NCC(=O)NCC(=O)OCC(=O)NC(=O)NC(C)(C)C)cc1C	-6	0%	0%	5.0%
Cc1ccc(NS(=O)(=O)c2ccc3c(c2)c(=O)n(C)c(=O)n3C)cc1F	-13	20%	15%	0.3%
Cc1cc(C)n(CCC(=O)Nc2ccc3c(c2)OCCO3)n1	x	6%	-24%	0.0%
C/C(N)=C(/C#N)C(=O)CSc1nnc(-c2ccccc2)n1C	0	2%	-14%	4.7%
COC(=O)c1ccc(NC(=O)CNC(=O)C2CCCCC2)c(C)c1	2	1%	1%	-3.4%
CCc1ccc(Nc2ncc3c(n2)CC(C)(C)CC3=O)cc1	-3	10%	-59%	-1.7%
CCN(CC)C(=O)[C@H]1CC(CC(=O)NC/C=C(\C)CCC=C(C)C)C(=O)N2CCc3c([nH]c4ccccc34)[C@]12C (stereo not given in full)	x	-5%	x	0.6%
COc1cc(CN2CCSCC2)cc(OC)c1OC	-6	-19%	1%	-0.3%
O=C(c1cccs1)N1CCC(c2ccccc2)C1 (stereo not given)	-18	0%	-53%	0.7%
O=C(O)C1CCCN1S(=O)(=O)c1ccc2[nH]c(=O)c(=O)[nH]c2c1 (stereo not given)	1	0%	-3%	1.0%
CCCCOc1ccc(CC(=O)NCC(=O)O)cc1	-3	-3%	0%	4.6%
CCC(CC)C(=O)OCC(=O)Nc1cc(OC)c([N+](=O)[O-])cc1C	3	-3%	-9%	-0.3%
CCOC(=O)c1cnc(-c2ccccc2O)nc1Cl	0	-10%	-4%	0.8%
COc1ccc(C(=O)Nc2ccc(NC(=O)c3cccc(OC)c3)cn2)cc1	x	9%	11%	-0.1%
Cc1cccc(NC(c2ccc(C)s2)c2ccc3ccc(C)nc3c2O)n1 (stereo not given)	-1	13%	-5%	-1.6%
COc1ccccc1CNC(=O)CCCc1nnc2n(C)c(=O)c3sccc3n12	x	-14%	0%	-3.2%
CN(C)c1ccc(/C=C/c2ccc3c4ccccc4ccc3[n+]2-c2ccccc2)cc1	-4	-5%	u	u
CC(=O)Nc1ccc(OCc2cccc([N+](=O)[O-])c2)cc1	3	30%	-57%	3.3%
Cc1ccc(S(=O)(=O)N2CCC(C(=O)NCc3ccncc3)CC2)cc1	12	6%	0%	3.0%

(listing goes on)
SMILES	GLA inh pH 4.5	Rango dissoc inh	miR-21 reporter	Rango complex inh
COc1ccc(F)cc1S(=O)(=O)N1CCC2(CC1)OCCN2S(=O)(=O)c1ccccc1	x	0%	x	2.8%
COc1ccc(C(=O)OCC(=O)c2ccc3c(c2)NC(=O)CO3)cc1OC	x	-8%	x	-1.2%
CNS(=O)(=O)c1ccc(NC(=O)Nc2cccc(F)c2)cc1	-7	-10%	-35%	-2.6%
Cc1nnsc1C(=O)N1CCN(c2ccc(C#N)cn2)CC1	2	6%	-7%	-0.6%
CCOC(=O)C1CCCN(C(=S)Nc2cccc(Cl)c2C)C1 (stereo not given)	2	18%	2%	2.2%
O=C(O)c1n[nH]nc1-c1ccccc1	-3	15%	-1%	-0.5%
Cc1ccc(C)c(NC(=O)Cn2nnc(C(=O)NCc3cccs3)c2N)c1	-2	5%	1%	-0.9%
COc1ccccc1/C=C/CN1CCSCC1	x	6%	-9%	1.7%
COc1ccccc1CNC(=O)c1ccc2c(=O)n(CCCN3CCCC3=O)c(=S)[nH]c2c1	5	6%	-1%	7.6%
O=C(NCCc1csc(-c2ccc(Cl)cc2)n1)c1ccco1	x	3%	6%&19%	-0.4%
COCCCNC(=S)NNC(=O)c1csc2ccccc12	-8	8%	-21%	3.4%
O=C(CCn1nc(-c2ccc(Cl)cc2)ccc1=O)N1CCN(c2ccc(F)cc2)CC1	x	0%	15%	1.6%
CCCCn1c(SCn2nnc3ccccc3c2=O)nc2cc(S(N)(=O)=O)ccc21	3	0%	-3%	-0.7%
COC(=O)c1cccc(C(=O)N2CCCC(CNC(=O)c3ccccc3Cl)C2)c1 (stereo not given)	-3	15%	-12%	3.6%
CCCOc1ccc(/C=N/NC(=S)Nc2ccccc2[N+](=O)[O-])c(O)c1	2	-10%	1%	6.2%
CN1CC(c2ccccc2)Oc2ccccc2C1=S (stereo not given)	x	-1%	x	0.6%
CCN(C(=O)c1cccc(F)c1)c1ccccc1C	1	-6%	-6%	6.7%
Cc1cccc(OCC(=O)O/N=C(\N)c2ccc(Br)cc2)c1	0	10%	-3%	1.8%
c1csc(CN2CCN(Cc3cccs3)C2c2cccs2)c1	1	-13%	-2%	0.7%
CC(C)=NN1C(=O)c2ccccc2NC1(C)C	9	36%	-30%	6.4%

Structural class: the compounds so far containing a cyano group
SMILES	GLA inh pH 4.5	Rango dissoc inh	miR-21 reporter	Rango complex inh
CCN(C(=O)COC(=O)/C(C#N)=C/c1ccc(N(C)C)cc1)C1CCS(=O)(=O)C1 (stereo not given)	x	u	x	u
C/C(N)=C(/C#N)C(=O)CSc1nnc(-c2ccccc2)n1C	0	2%	-14%	4.7%
Cc1nnsc1C(=O)N1CCN(c2ccc(C#N)cn2)CC1	2	6%	-7%	-0.6%

Going on with the list:
SMILES	GLA inh pH 4.5	Rango dissoc inh	miR-21 reporter	Rango complex inh
O=C(CSc1nc2cc(Cl)ccc2s1)N1CCN(C(=O)c2ccco2)CC1	-5	-2%	-12%	-1.4%
COC(=O)N/N=C/c1ccc(OCCSc2ccc(Cl)cc2)c(OC)c1	4	14%	1%	-0.3%
CNC(=O)c1cc(Nc2nnc(-c3ccc(C)c(S(N)(=O)=O)c3)c3ccccc23)ccc1OC	x	-17%	0%	u
CN(c1cccc(NC(=O)CSc2ccc(Cl)cc2)c1)S(C)(=O)=O	-2	0%	14%	-3.7%
Cc1cc2c(C)nc(Cc3ccccc3)nc2o1	-4	-7%	-21%	0.6%
O=S(=O)(c1ccc(Cl)cc1)N1CCC(O)(CN2CCN(Cc3ccccc3)CC2)CC1	-7	0%	4%	4.2%
Cc1nc2c(cc(Oc3ccc(S(=O)(=O)N4CCOCC4)cn3)c3ccsc32)s1	1	-7%	-9%	4.2%
Cc1cccc(C)c1-n1nnnc1S(=O)(=O)Cc1ccccc1Cl	2	12%	7%	0.1%
CC(Sc1ncn[nH]1)C(=O)Nc1cc(C(F)(F)F)ccc1Cl (stereo not given)	x	6%	x	-1.3%
Cc1ccc(S(=O)(=O)n2oc(=O)c(C3CCCCC3)c2N)cc1	x	-11%	x	-1.7%
COc1ccc(CCNC(=O)COC(=O)COc2ccc(Cl)cc2)cc1OC	-1	-7%	3%	6.3%
CCS(=O)(=O)c1ccc2oc(SCC(=O)NCc3ccccc3)nc2c1	-3	5%	-18%	0.6%
O=C(NCCCc1ccc(F)cc1)C1CCC(=O)N(CC2CCCCC2)C1 (stereo not given)	x	14%	3%	-1.1%
